LASV entry inh: qHTS for Inhibitors of binding or entry into cells for Lassa Virus; AID 540256, 2011; Lassa virus pseudotype entry inhibition, cell reporter; control for the full effect not named in the record; Potency, µM (series often up to 37.9 µM), inactives show top-dose activity change, negative = inhibition, usual class: inhibitors; 300,000 tested, 1.2% active; active means well fitted inhibition curve with a large enough effect; inconclusive means small, poorly fitted or top-dose-only effect, or effect the other way; inactive means flat fitted curve, though single readings scatter; tested in HEK293 cells; note: % is set by controls: 0 for no effect and ±100 for the full control effect; nearly all actives have a fitted effect of over 50% in size; luciferase read-out
Cruzain inh Det: qHTS Assay for Promiscuous and Specific Inhibitors of Cruzain (with detergent). AID 1478, 2009. purified cruzain, Z-FR-AMC fluorescence, 0.01% Triton. 200,000 tested, 0.43% active. Potency, µM, inactives show max response, negative = inhibition, actives largely listed as inhibitors;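 note: plate controls were neutral wells for no effect and buffer without enzyme for full effect; nearly all actives have a fitted effect of over 40% in size; top concentration of the series not given in the record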
Target sequence (P25779 123-467 limits assumed): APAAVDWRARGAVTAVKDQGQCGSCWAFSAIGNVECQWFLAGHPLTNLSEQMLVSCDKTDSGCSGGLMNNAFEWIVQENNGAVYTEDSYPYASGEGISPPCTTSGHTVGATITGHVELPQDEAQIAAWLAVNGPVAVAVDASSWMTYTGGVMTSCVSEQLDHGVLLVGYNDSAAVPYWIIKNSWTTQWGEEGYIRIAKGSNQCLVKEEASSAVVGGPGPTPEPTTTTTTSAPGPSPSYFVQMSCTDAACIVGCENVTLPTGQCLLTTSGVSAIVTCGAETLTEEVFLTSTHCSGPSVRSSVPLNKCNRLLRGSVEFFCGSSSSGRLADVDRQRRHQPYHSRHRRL
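Detergent-containing arm of a paired screen for aggregation-based inhibition: 0.01% Triton X-100 present. Cruzain at 1.5 nM cleaved 2 uM Z-FR-AMC at pH 5.5 with 5 mM DTT; AMC fluorescence gain over 60 s measured activity.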
NS1 function inh: qHTS Assay for Inhibitors of Influenza NS1 Protein Function. 270,000 tested, 0.4% active. AID 2326, 2010. Potency, µM (series often up to 46.1 µM), inactives show at the highest dose activity, positive = more growth. S. cerevisiae slowed by influenza A NS1, growth recovery by OD600; active means well fitted rising curve with a large enough effect; inconclusive means small, poorly fitted or top-dose-only effect; inactive means no such curve, though single readings can be large or run the other way; note: nearly all actives have a fitted effect of over 50% in size
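A cell-based growth assay was used: compounds that relieve NS1-induced slow growth of budding yeast raise OD600. Assay medium was yeast nitrogen base with ammonium sulphate and -URA supplement, pH 6.0, with 2% galactose.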
MARV entry inh: qHTS for inhibitors of binding or entry into cells for Marburg Virus | 300,000 tested, 1.8% active | Marburg virus pseudotyped entry inhibition, cell reporter; control for the full effect not named in the record; about a third of the inactives were read at about 46 µM | Potency, µM (titrated, usually from 37.8 µM), for inactives: at the top dose activity change, negative = inhibition, most hits filed as inhibitors | AID 540276, 2011; active = well fitted inhibition curve with a large enough effect; inconclusive = small, poorly fitted or top-dose-only effect, or effect the other way; inactive = flat fitted curve, though single readings scatter; tested in HEK293 cells; about a fifth of its hits are not listed in these tables; note: % is set by controls: 0 for no effect and ±100 for the full control effect; luciferase read-out
Cruzain inh noDet: qHTS Assay for Promiscuous and Specific Inhibitors of Cruzain (without detergent); AID 1476, 2009; 200,000 tested, 2.3% active; Cruzipain (Trypanosoma cruzi), P25779; purified cruzain, Z-FR-AMC fluorescence, no detergent; Potency, µM, without a hit: max response, negative = inhibition, actives largely listed as inhibitors;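 note: plate controls were enzyme without inhibitor for no effect and buffer without enzyme for full effect; nearly all actives have a fitted effect of over 40% in size; top concentration of the series not given in the record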
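Purified cruzain at 1.5 nM, pre-incubated 15 min with compound at room temperature in 100 mM sodium acetate pH 5.5, 5 mM DTT, 0.00005% Triton X-100. Reaction started with 2 uM Z-FR-AMC; AMC fluorescence increase over 60 s gives rate.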
RE007 growth inh: qHTS Assay for Inhibitors of the HIV-1 protein Vpr. 360,000 tested, 0.21% active. S. pombe RE007 Vpr strain, BacTiter-Glo ATP luminescence, 24 h; control for the full effect not named in the record. Potency, µM (titrated, usually from 92.2 µM), inactives show at the highest dose activity change, negative = less growth. AID 651644, 2012; active = well fitted falling curve with a large enough effect; inconclusive = small, poorly fitted or top-dose-only effect; inactive = no such curve, though single readings can be large or run the other way;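 note: % is set by controls: 0 for no effect and ±100 for the full control effect; nearly all actives have a fitted effect of over 50% in size; the assay follows cell death caused by Vpr and the record does not say whether a fall means rescue or toxicity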
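Fission yeast RE007 carrying one integrated HIV-1 vpr copy, seeded at OD 0.01 in PMG+AL medium with 23 nL pinned compound. Grown 24 h at 30 degrees; viability read by BacTiter-Glo luminescence after 5 min.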
StopGo reporter: High Throughput Screening for Foot and Mouth Disease Virus Antivirals; 410,000 tested, 1.2% active; AID 1159524, 2015; human cells with a luciferase reporter of 2A StopGo recoding; control for the full effect not named in the record; Potency, µM (titrated, usually from 57.9 µM), inactives show at the top dose signal change, negative = less light; active = well fitted falling curve with a large enough effect; inconclusive = small, poorly fitted or top-dose-only effect; inactive = no such curve, though single readings can be large or run the other way; tested in HEK293T cells; note: % is set by controls: 0 for no effect and ±100 for the full control effect; nearly all actives have a fitted effect of over 45% in size; luciferase light after 4 h
SARS PLP yeast: qHTS of Yeast-based Assay for SARS-CoV PLP | Potency, µM (doses to about 32.9 µM), for inactives: at the top dose activity, positive = growth rescue | S. cerevisiae expressing SARS-CoV PLpro, growth rescue; control for the full effect not named in the record | 330,000 tested, 0.19% active; active means well fitted rising curve with a large enough effect; inconclusive means small, poorly fitted or top-dose-only effect; inactive means no such curve, though single readings can be large or run the other way; note: 0% is about no effect; nearly all actives have a fitted effect of over 55% in size; growth read by luminescence after 48 h
Starred values were filed as active, the others as inactive; ? = inconclusive; · = no result given; [ ] = another dose, or the depositor's remark. Unless noted, calls come from the whole dose curve; as a rule, active = well fitted curve in the direction sought with a large enough effect; inconclusive = small, poorly fitted or top-dose-only effect, or another doubt; inactive = no such curve, though single readings can be large; an effect the other way counts as inactive or inconclusive. Potency is the fitted concentration of half-maximal effect. Outcome played no part in choosing rows. About 4.7% of those tested had a hit in this group.

SMILES	LASV entry inh	Cruzain inh Det	NS1 function inh	MARV entry inh	Cruzain inh noDet	RE007 growth inh	StopGo reporter	SARS PLP yeast
O=C(CN1CCCCC1)Nc1ccc(F)c(Cl)c1	6%	1.2%	2%	4%	-9%	15%	3%	6%
O=C(CSc1cccc[n+]1[O-])N1CCCc2ccccc21	-1%	·	·	23%[46.1 µM]	·	5%	28%	-2%
COc1ccccc1NC(=O)c1cccc(S(=O)(=O)N2CCOCC2)c1	6%	-0.1%	-28%	0%	0%	0%	-19%	-3%
COc1ccc(CNC(=O)CN(c2cccc(OC)c2)S(C)(=O)=O)cc1	4%	3.2%	0%	4%	2%	2%	·	8%
O=C(Nc1ccc(F)cc1)Nc1ccc(Oc2ncnc3cc(Cl)ccc23)nc1	-1%	·	2%	18%	·	-5%	3%	-2%
CC[C@@]12C(=O)N(c3ccc(OC)cc3)C(=O)N1[C@H](c1ccc(Cl)cc1)[C@@H]1C(=O)N(C3CCCCC3)C(=O)[C@@H]12	·	·	16%	·	·	2%	?	-5%
O=C(c1cc2c(s1)CCC2)N1CCN(c2ccccc2)CC1	9%	-1.4%	-8%	26%	-12%	24%	-3%	-2%
CCCCC1=CC2=CC(=O)C(C)(OC(=O)CC)C(=O)C2=CN1C1CCCC1 (stereo not given)	·	·	1%	·	·	6%	-15%	2%
COc1ccc(N2CCN(CCC(=O)c3ccc4ccccc4c3)CC2)cc1	·	·	-35%	·	·	?	-14%	-10%
CC(=O)c1ccc(N2CCN(S(=O)(=O)c3c(C(=O)N4CCCCC4)c(C)n(C)c3C)CC2)cc1	·	·	-1%	·	·	-11%	-2%	2%
COc1ccccc1N1CCN(CC(=O)Nc2nc(C)c(C(=O)N(C)C)s2)CC1	·	·	7%	·	·	2%	-8%	-4%
CCc1nn2c(=O)cc(COC(=O)c3cccc(NC(=O)CCc4ccccc4)c3)nc2s1	-18%[46.1 µM]	0.1%	·	·	8%	·	-15%	·
O=C(CSc1ncnc2c1cnn2CCO)Nc1cccc(C(F)(F)F)c1	12%	-1.3%	9%	4%	5%	1%	0%	-1%
CC1CCC(NC(=O)C2CC(=O)N(c3ccc4c(c3)OCCO4)C2)CC1 (stereo not given)	9%	·	3%	11%[46.1 µM]	·	4%	10%	1%
CCCN1CCN(C(=O)CCCNC(=O)c2ccc(Cl)cc2)CC1	19%[46.1 µM]	·	-2%	-21%[46.1 µM]	·	11%	-1%	27%
Cc1cc(C(=O)C(C)OC(=O)C2=NNC(=O)CC2)c(C)n1-c1ccc(OC(F)F)cc1 (stereo not given)	-22%	-1.1%	-47%	-19%	4%	5%	?	0%
CN1CCc2c(sc3nc(SCC(=O)N4CCOCC4)n(-c4ccc(Cl)cc4)c(=O)c23)C1	·	·	10%	·	·	-2%	-9%	17%
O=C(CC1SC(=Nc2ccc(O)cc2)NC1=O)Nc1ccccc1 (stereo not given)	?	·	3%	10%	·	-1%	5%	1%
O=C(c1ccc(Cl)cc1)N1CCN(c2ncccn2)CC1	-3%	·	3%	-11%	·	3%	-3%	-1%
CCCN(C(=O)c1ccco1)c1nnc(-c2cccc(C)c2)s1	·	·	2%	·	·	-20%	31%[activator]	-1%
CC1CCN(CCCCOc2ccccc2F)CC1	11%[46.1 µM]	·	3%	?	·	-14%	-12%	-1%
CCOC(=O)c1cc2sccc2n1CCCN1C(=O)c2ccccc2C1=O	0%	-4.5%	-8%	-20%	-3%	11%	?	0%
COC(C(=O)Nc1cccc([N+](=O)[O-])c1)c1ccccc1 (stereo not given)	·	·	2%	·	·	9%	-1%	0%
COc1ccc(-c2nsc(SCC(=O)NCC3CCCO3)n2)cc1 (stereo not given)	-16%[46.1 µM]	·	·	1%[46.1 µM]	·	-4%	-7%	0%
Cc1nc(-c2ccccc2)sc1-c1ccc(SCC(=O)Nc2ccc(F)cc2F)nn1	-6%[46.1 µM]	-0.6%	·	·	-3%	·	-4%	·
CCSC1=C(C#N)C(c2ccc(C)o2)CC(=O)N1 (stereo not given)	-4%	·	-6%	14%[14.2 µM]	·	4%	-18%	-1%
Cc1ccc(-n2ncc3c2CCCC3NC(=O)c2csnn2)cc1C (stereo not given)	·	·	-19%	·	·	14%	-26%	-3%
O=C(NN1C(=O)/C(=C/c2ccc(O)c(O)c2)SC1=S)c1ccccc1	?	·	24%	?	·	-24%	?	?
Cn1nc(C(=O)NCc2cccs2)c2ccccc2c1=O	2%	-1.8%	-5%	-19%	13%	17%	7%	14%
Cc1nnc(NC(=O)C(C)Oc2ccc3c(C)cc(=O)oc3c2)s1 (stereo not given)	1%	-3.8%	4%	?	?	0%	-20%	2%
CC(C)CCn1nnnc1C(c1ccccc1)N1CCC(C(N)=O)CC1 (stereo not given)	15%	4.9%	1%	14%[46.1 µM]	19%	-4%	13%	13%
CCOc1ccc(NC(=O)CN(Cc2ccccc2)S(=O)(=O)c2ccc3nc(C)sc3c2)cc1	?	-2.3%	·	·	18%	·	-11%	·
c1ccc(C(c2ccccc2)N2CCN(c3nc4ccccc4n4cnnc34)CC2)cc1	?	-9.1%	5%	?	-14%	18%	28µM*	-1%
CC1CCCC(NC(=O)CCS(=O)(=O)c2ccc3c(c2)NC(=O)CS3)C1C (stereo not given)	·	·	3%	·	·	-7%	-14%	0%
CN(C)c1nc(OCCNC(=O)Nc2ccccc2)nc(N2CCOCC2)n1	·	0.1%	-3%	1%	4%	·	-5%	6%
CCOC(=O)c1[nH]c2ccc(OC)cc2c1NC(=O)C(C)N1CCC2(CC1)OCCO2 (stereo not given)	·	-6.7%	-6%	2%	-1%	·	·	0%
Cc1coc(C)c1C(=O)CC1(O)C(=O)N(Cc2ccccc2)c2ccccc21 (stereo not given)	-30%	0.0%	-44%	-6%	10%	-4%	-18%	·
Nc1nnc(SCC(=O)c2ccc3c(c2)NC(=O)CO3)s1	11%	·	3%	9%	·	-3%	7%	1%
O=C(O)c1ccc(NS(=O)(=O)/C=C/c2ccccc2)cc1	8%	-1.8%	0%	-13%[46.1 µM]	2%	-2%	34%[activator]	5%
Cc1cc(C)c(CSc2ncnc3nc[nH]c23)c(C)c1	?	·	11%	3%[46.1 µM]	·	23%	-1%	0%
O=C(NC1CCCCC1)c1cc2c(Cl)nc3ccccc3c2s1	18%[46.1 µM]	2.2%	·	-14%[46.1 µM]	1%	·	-12%	·
CC(C)(C)C(=O)Nc1nc(NC(=O)C(C)(C)C)nc(-c2ccccc2Cl)n1	-4%[46.1 µM]	·	5%	-6%[46.1 µM]	·	7%	2%	0%
CCC(=O)Nc1sc2c(c1C#N)CC(C)(CC)OC2 (stereo not given)	-9%	0.1%	-6%	20%	2%	1%[3.69 µM]	14%	9%
O=C(CS(=O)(=O)c1cccc2nsnc12)Nc1ccc(F)cc1F	0%[46.1 µM]	-2.7%	·	·	-2%	·	-4%	·
Cc1cc(C)cc(NC(=O)C(=O)NCC(c2cccnc2)N2CCc3ccccc3C2)c1 (stereo not given)	3%[46.1 µM]	-0.7%	·	·	-11%	·	?	·
c1ccc(-c2csc(CN3CCCCC3)n2)cc1	?	·	·	?	·	-24%	-15%	·
CN(Cc1cccc(F)c1)C(=O)CNS(=O)(=O)c1ccc2ccccc2c1	3%[46.1 µM]	·	3%	-11%[46.1 µM]	·	2%	22%	1%
CN(Cc1ccccc1)c1ccc(N2C(=O)CCCC2=O)cc1[N+](=O)[O-]	3%	-3.9%	10%	-8%	1%	1%	-14%	16%
COc1ccccc1OCCn1c(=O)oc2ccc(C)cc21	6%	·	-4%	?	·	25%	-7%	-1%
CC(O)CNc1ccc([N+](=O)[O-])c2cccnc12 (stereo not given)	21%	-13%	2%	-2%	-19%	7%	-6%	5%
COc1ccc(-c2nc(N)ncc2-c2csc(C)n2)c(O)c1OC	15%[46.1 µM]	·	·	12%[46.1 µM]	·	11%	-15%	3%
CC(C)NC(=O)C(OC(=O)c1ccccc1)C(OC(=O)c1ccccc1)C(=O)O (stereo not given)	5%	-0.7%	3%	5%	0%	-8%	13%	6%
Cn1c(=S)sc2ccc3ccccc3c21	-15%[46.1 µM]	·	·	?	·	1%	-14%	·
CC(C)c1ccc(N2C(=O)CSC23C(=O)N(Cc2ccccc2)c2ccccc23)cc1 (stereo not given)	6%[46.1 µM]	-3.7%	·	·	3%	·	?	·
O=S(=O)(NC12CC3CC(CC(C3)C1)C2)c1ccc(F)cc1	-25%	-2.7%	-76%	-4%	10%	-5%	-5%	-11%
CCC(CC)C(=O)Nc1nnc(S(=O)(=O)N(C)c2cc(C)cc(C)c2)s1	?	-1.6%	·	·	-19%	·	-9%	·
O=C(COc1ccc(Cl)cc1Cl)Nc1ccccn1	0.52µM*	-4.8%	-10%	?	-4%	?	1.6µM*	-27%
CCc1ccc(C)[n+](CC(=O)c2cccs2)c1	-13%[46.1 µM]	·	-2%	?	·	-10%	-16%	1%
CCC1CCCCN1S(=O)(=O)c1ccc(NC(=O)C2CCCO2)cc1 (stereo not given)	-25%	·	1%	13%	·	6%	-1%	2%
O=C(Nc1nnc(CCN2CCCCC2)s1)c1ccccc1	13%	·	·	5%	·	2%	37%[activator]	-10%

Next records:
SMILES	LASV entry inh	Cruzain inh Det	NS1 function inh	MARV entry inh	Cruzain inh noDet	RE007 growth inh	StopGo reporter	SARS PLP yeast
Cc1cc(C)cc(COc2ccc3c(C)c(CC(=O)O)c(=O)oc3c2C)c1	26%[46.1 µM]	·	4%	13%[46.1 µM]	·	11%	-9%	1%
Cc1cc(C)c(NC(=O)C(C)n2c(=O)cc(-c3ccccc3)c3c(C)nn(C)c32)c(C)c1 (stereo not given)	10%[46.1 µM]	-1.5%	·	·	-1%	·	-17%	·
O=C1CCCC(O)=C1C=Nc1ccc(O)cc1	2%	-5.4%	-8%	?	2%	0%	41%[activator]	0%
C=CCn1c(SCc2nc3sc(C(=O)O)c(C)c3c(=O)[nH]2)nnc1-c1ccccc1	3%	·	9%	?	·	7%	1%	4%

From PubChem BioAssay
